Cruzain noTriton = inhibitors of Trypanosoma cruzi cruzain without detergent | P25779 | purified cruzain, Z-FR-AMC fluorescence, no detergent | Potency, µM, for inactives: max response, negative = inhibition, usual class: inhibitors | hit rate 2.3% among 200,000; active = well fitted curve in the direction sought with a large enough effect; inconclusive = small, poorly fitted or top-dose-only effect, or another doubt; inactive = no such curve, though single readings can be large; an effect the other way counts as inactive or inconclusive;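 also: plate controls were enzyme without inhibitor for no effect and buffer without enzyme for full effect; nearly all actives have a fitted effect of over 40% in size; top concentration of the series not given in the record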
Target sequence (P25779 123-467 limits assumed): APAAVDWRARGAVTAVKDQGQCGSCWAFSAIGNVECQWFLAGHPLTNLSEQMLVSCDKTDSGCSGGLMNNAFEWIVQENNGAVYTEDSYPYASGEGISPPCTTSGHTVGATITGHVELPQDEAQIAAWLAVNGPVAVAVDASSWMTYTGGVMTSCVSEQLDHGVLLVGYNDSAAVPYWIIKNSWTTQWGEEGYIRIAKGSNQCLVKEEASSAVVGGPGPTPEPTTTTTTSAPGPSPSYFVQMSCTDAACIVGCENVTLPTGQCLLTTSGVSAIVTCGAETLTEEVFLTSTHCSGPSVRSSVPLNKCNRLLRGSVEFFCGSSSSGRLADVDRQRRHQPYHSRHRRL
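Detergent-free condition (0.00005% Triton X-100) in acetate buffer pH 5.5 with DTT. 1.5 nM enzyme and compound were pre-mixed 15 min, then 2 uM Z-FR-AMC substrate added; reaction progress from fluorescence change between first and third reads (60 s).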
2A StopGo = lowers the luciferase signal of an FMDV 2A StopGo reporter | Potency, µM (doses to about 57.9 µM), for inactives: at the top dose signal change, negative = less light | hit rate 1.2% among 410,000 | AID 1159524 | human cells with a luciferase reporter of 2A StopGo recoding; control for the full effect not named in the record; active = well fitted falling curve with a large enough effect; inconclusive = small, poorly fitted or top-dose-only effect; inactive = no such curve, though single readings can be large or run the other way; tested in HEK293T cells; also: % is scaled to controls: 0 for no effect and ±100 for the full control effect; nearly all actives have a fitted effect of over 45% in size; luciferase light after 4 h
SARS PLpro yeast = inhibitors of SARS-CoV papain-like protease in yeast. S. cerevisiae expressing SARS-CoV PLpro, growth rescue; control for the full effect not named in the record. Potency, µM (doses to about 32.9 µM), inactives show at the highest dose activity, positive = growth rescue. hit rate 0.19% among 330,000. AID 485353; also: 0% is about no effect; nearly all actives have a fitted effect of over 55% in size; growth read by luminescence after 48 h
Lassa entry inh = Lassa virus entry inhibition. Lassa virus pseudotype entry inhibition, cell reporter; control for the full effect not named in the record. Potency, µM (titrated, usually from 37.9 µM), for the others: top-dose activity change, negative = inhibition, most hits filed as inhibitors. hit rate 1.2% among 300,000. AID 540256; active means well fitted inhibition curve with a large enough effect; inconclusive means small, poorly fitted or top-dose-only effect, or effect the other way; inactive means flat fitted curve, though single readings scatter; tested in HEK293 cells; also: % is scaled to controls: 0 for no effect and ±100 for the full control effect; nearly all actives have a fitted effect of over 50% in size; luciferase read-out
Cruzain inh Det = inhibitors of Trypanosoma cruzi cruzain with detergent; AID 1478; P25779; hit rate 0.43% among 200,000; Potency, µM, without a hit: max response, negative = inhibition, usual class: inhibitors; purified cruzain, Z-FR-AMC fluorescence, 0.01% Triton; active = well fitted curve in the direction sought with a large enough effect; inconclusive = small, poorly fitted or top-dose-only effect, or another doubt; inactive = no such curve, though single readings can be large; an effect the other way counts as inactive or inconclusive;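 also: plate controls were neutral wells for no effect and buffer without enzyme for full effect; nearly all actives have a fitted effect of over 40% in size; top concentration of the series not given in the record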
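15 min RT preincubation of 1.5 nM cruzain with compound, then 2 uM Z-FR-AMC added; kinetic AMC fluorescence, 60 s delta. Triton X-100 0.01%, pH 5.5.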
MARV entry inh = inhibitors of Marburg virus binding or cell entry; AID 540276; Marburg virus pseudotyped entry inhibition, cell reporter; control for the full effect not named in the record; about a third of the inactives were read at about 46 µM; hit rate 1.8% among 300,000; Potency, µM (top dose mostly 37.8 µM), for inactives: top-dose activity change, negative = inhibition, hits mostly inhibitors; active = well fitted inhibition curve with a large enough effect; inconclusive = small, poorly fitted or top-dose-only effect, or effect the other way; inactive = flat fitted curve, though single readings scatter; tested in HEK293 cells; about a fifth of its hits are not listed in these tables; also: % is scaled to controls: 0 for no effect and ±100 for the full control effect; luciferase read-out
RE007 growth inh = less growth of the S. pombe RE007 Vpr strain. hit rate 0.21% among 360,000. Potency, µM (doses to about 92.2 µM), without a hit: at the top dose activity change, negative = less growth. S. pombe RE007 Vpr strain, BacTiter-Glo ATP luminescence, 24 h; control for the full effect not named in the record; active = well fitted falling curve with a large enough effect; inconclusive = small, poorly fitted or top-dose-only effect; inactive = no such curve, though single readings can be large or run the other way;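 also: % is scaled to controls: 0 for no effect and ±100 for the full control effect; nearly all actives have a fitted effect of over 50% in size; the assay follows cell death caused by Vpr and the record does not say whether a fall means rescue or toxicity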
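Fission yeast strain RE007, carrying one chromosomally integrated HIV-1 vpr copy, was seeded at OD 0.01 in PMG+AL medium with 23 nL pinned compound. After 24 h at 30 °C and 99% humidity, viability was read by BacTiter-Glo luminescence.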
NS1 function inh = influenza NS1 inhibition | Potency, µM (highest dose often 46.1 µM), without a hit: top-dose activity, positive = more growth | hit rate 0.4% among 270,000 | S. cerevisiae slowed by influenza A NS1, growth recovery by OD600; also: actives are rising curves; nearly all actives have a fitted effect of over 50% in size
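S. cerevisiae expressing influenza A NS1, grown in glucose, washed, then diluted 1:100 into pH 6.0 -URA galactose medium with 23 nl compound. Growth recovery read as OD600; NS1-free strain serves as control.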
* hit, by the source's call; ? = inconclusive; . = no result given; & = joins results of further samples; [ ] = dose if it differs, or a comment. Unless noted, calls follow the shape of the dose curve; as a rule, active means well fitted rising curve with a large enough effect; inconclusive means small, poorly fitted or top-dose-only effect; inactive means no such curve, though single readings can be large or run the other way. Potency is read from the fitted curve at half-maximal effect.

SMILES	Cruzain noTriton	2A StopGo	SARS PLpro yeast	Lassa entry inh	Cruzain inh Det	MARV entry inh	RE007 growth inh	NS1 function inh
Cn1ccc(NC(=O)Nc2cccc([N+](=O)[O-])c2)n1	.	28%	0%	7%	.	17%[46.1 µM]	3%	-3%
CC(C)Oc1ccc(CC(=O)NNC(=S)Nc2ccc(Br)cc2)cc1	?	0%	13%	-15%	-1.7%	3%	-10%	1%
COc1cccc(CC2(CO)CCN(S(=O)(=O)N(C)C)CC2)c1	.	-19%	-1%	-25%	.	9%[46.1 µM]	-11%	-3%
Cc1ccc(S(=O)(=O)Nc2ccc3nc(C)sc3c2)cc1	3%	-16%	-6%	?	-1.2%	?	22%	-6%
Cc1nn(C)c(C)c1S(=O)(=O)N1CCCC(C(=O)NCC2COc3ccccc3O2)C1 (stereo not given)	18%	-23%	6%	.	2.3%	5%	9%	-14%
Cc1ccc(NS(=O)(=O)c2ccc(OCC(=O)NCc3cccnc3)cc2)cc1	3%	0%	29%	?	-0.6%	-3%	-6%	-1%
COc1ccc(-c2csc(N(CC3CCCO3)C(=O)c3cccs3)n2)cc1 (stereo not given)	-12%	?	-4%	?	-4.2%	?	34%	-48%
Cc1ccccc1NC(=O)c1cc2c(C)nc3ccccc3c2o1	.	?	1%	-23%	.	-8%[46.1 µM]	-9%	.
Cc1cccc(C(=O)Nc2cccc(C(=O)N/N=C/c3ccncc3)c2)c1	-8%	-18%	-7%	-13%	-1.3%	0%	5%	3%
CN(CCCCOc1ccc(F)cc1)Cc1ccccc1	.	-3%	1%	.	.	.	-12%	17%
Cc1ccc(NC(=S)NCc2cccnc2)cc1	-6%	17%	-1%	0%	4.6%	5%	-9%	3%
Cn1c(CCN2CCN(c3ccccn3)CC2)nc2cc(NS(=O)(=O)c3ccccc3)ccc21	.	?	8%	.	.	.	-10%	-1%
O=C(N[C@@H](Cc1ccccc1)C(=O)OCc1ccccc1)c1nc[nH]c1C(=O)NCc1ccccc1	.	?	0%	.	.	.	-8%	?
CCCNC(=O)COCc1cc(-c2ccc3c(c2)OCO3)on1	.	35%[activator]	2%	26%[46.1 µM]	.	?	36%	3%
CCOC(=O)c1c([N+](=O)[O-])c(C)[nH]c(=O)c1C#N	.	-10%	0%	-17%[46.1 µM]	.	-4%[46.1 µM]	14%	1%
CS(=O)(=O)c1ccc(Cl)c(NC(=O)CN2C(=O)C3CCCCC3C2=O)c1 (stereo not given)	.	3%	13%	-6%[46.1 µM]	.	-12%	-18%	.
CCOC(=O)c1cc(NC(=O)N2CCCc3ccccc32)c(C)nc1C	-3%	0%	0%	-13%	-1.0%	?	2%	-6%
CN(C)c1cccc(C(=O)N2CCC(c3c[nH]c4ccccc34)(c3c[nH]c4ccccc34)CC2)c1	?	15%	.	-27%[46.1 µM]	-6.4%	-26%[46.1 µM]	.	.
O=[N+]([O-])c1cc(S(=O)(=O)N2CCCCC2)ccc1NCCN1CCOCC1	.	0%	1%	3%	.	6%	5%	.
CCOC(=O)CNC(=O)/C(=C\c1ccc(F)cc1)NC(=O)c1ccccc1	.	-3%	0%	4%	.	11%	-2%	2%
COc1ccc(-n2c(=O)c3ccccc3n(Cc3ccc(F)cc3Cl)c2=O)cc1OC	-4%	-13%	.	6%[46.1 µM]	-2.1%	0%[46.1 µM]	.	.
Cc1cc(C)c2c(=O)cc(C(F)(F)F)oc2n1	.	2%	0%	.	.	.	6%	0%
O=C(NC1CC2CCCC(C1)N2C(=O)Nc1cccc(F)c1)C1CC1 (stereo not given)	.	-7%	1%	4%	.	2%[46.1 µM]	15%	7%
COCCNC(=O)CCC1CCN(Cc2ccc(-c3ccccc3)cc2)CC1	.	-7%	3%	15%[46.1 µM]	.	?	1%	5%
CCC1(C)Cc2c(C#N)c(N)n(N)c(=S)c2CO1 (stereo not given)	-4%	-3%	7%	-12%	-4.9%	-5%[46.1 µM]	-7%	10%
C/C(=N\Nc1nc(C)c(C)s1)c1ccc([N+](=O)[O-])cc1	.	28µM*	4%	.	.	?	-20%	.
S=C(NCc1ccncc1)Nc1cccc(Cl)c1	13%	11%	-2%	-10%	-1.0%	?	15%	4%
COCCCn1c2nc3ccccc3nc2c2c(=O)n(Cc3cccs3)cnc21	-10%	.	-2%	.	5.8%	5%	.	8%
CC(C)(C)OC(=O)N1Cc2ccccc2C[C@H]1C(=O)NCC(=O)NC1CCCC1	.	-10%	-8%	29%[46.1 µM]	.	-8%[46.1 µM]	-1%	-8%
COc1ccccc1/C=C/C(=O)OCC(=O)Nc1ccc2c(c1)OCO2	.	2%	-2%	-3%	.	-2%	-10%	.
CCC(Oc1ccccc1)C(=O)N1CCN(Cc2cc(=O)n3nc(-c4cccc(C)c4)sc3n2)CC1 (stereo not given)	?	?	.	10%[46.1 µM]	-4.5%	.	.	.
CCCCOc1cccc(C2/C(=C(/O)c3ccc4c(c3)CC(C)O4)C(=O)C(=O)N2CCN2CCOCC2)c1 (stereo not given)	.	-29%	2%	.	.	.	-3%	12%
O=C(NC1CCCCC1)c1ccc2snnc2c1	.	-1%	-3%	-23%	.	1%[46.1 µM]	4%	-14%
O=c1c2oc3ccccc3c2n(Cc2cccc(Cl)c2)c(=O)n1Cc1ccc2c(c1)OCO2	?	-8%	.	9%[46.1 µM]	-1.0%	.	.	.
CCOc1ccccc1NC(=O)c1sc2nc(-c3ccc(OC)cc3)ccc2c1N	-30%	40%[activator]	.	?	-5.1%	?	.	.
O=C(NCc1cccs1)C1CCN(S(=O)(=O)c2cccc([N+](=O)[O-])c2)CC1	.	10%	3%	7%[46.1 µM]	.	10%[46.1 µM]	-5%	6%
O=C(Cn1cnc2ccccc2c1=O)NCC(=O)N1CCC2(CC1)OCCO2	0%	-13%	6%	-4%	-0.1%	0%	-2%	-1%
COc1ccccc1CN1CCC(CNC(=O)c2cnn(-c3ccc(C)c(C)c3)c2C2CCN(C(=O)OC(C)(C)C)CC2)CC1	-2%	-7%	.	9%[46.1 µM]	0.6%	.	.	.
CCc1cccc(NC(=O)c2ccc(NS(=O)(=O)c3c(C)noc3C)cc2)c1	?	-23%	0%	-11%	-8.2%	18%	8%	-4%
CC(=O)Nc1ccc(OCC(=O)N(CC(C)C)C2CCS(=O)(=O)C2)cc1 (stereo not given)	.	-21%	-1%	.	.	6%[46.1 µM]	14%	.
COc1ccc(NC(=O)Cn2cc(C(=O)c3cccs3)c3ccccc32)cc1	2%	8%	.	1%[46.1 µM]	-5.2%	.	.	.
CCN(C(=O)c1cc2c(=O)[nH]c3ccc(C)cc3c2s1)c1cccc(C)c1	.	-13%	0%	?	.	?	-7%	1%
C=CCNC(=O)CCCCCNS(=O)(=O)c1ccc(OC)cc1	2%	9%	2%	2%	4.2%	11%	11%	-11%
CCOC(=O)c1ccc(CSc2nnc(C)n2N)o1	6%	-11%	-7%	1%	7.5%	10%	0%	7%
COc1ccc(-c2cc(=O)c3cc(O)ccc3o2)cc1	.	22%	-1%	.	.	.	-1%	1%
CCS(=O)(=O)N1CCN(C(=O)c2ccccc2)CC1	9%	10%	15%	0%	3.1%	-3%	2%	13%
COc1ccc(N=C(C)c2sc3ccccc3c2O)cc1	.	33%[activator]	0%	6%	.	20%[46.1 µM]	0%	-11%
COc1ccc(Cn2c(=O)c3cccnc3n(Cc3cccc(F)c3)c2=O)cc1	11%	-18%	.	.	-6.5%	?	.	.
Cc1nc2c(cnn2-c2ccccc2Cl)c(=O)n1-c1ccc(C(C)C)cc1	-8%&-3%	?	-22%	9.2µM*	-6.2%&-0.9%	15µM*	-9%	-84%
C=CCn1c(C)cc(-c2csc(N)n2)c1C	?	2%	1%	27%	-4.7%	14%	-11%	17%
COc1ccc(S(=O)(=O)N(C)CC(=O)Nc2ccccc2C(F)(F)F)cc1Cl	-8%	-9%	-2%	-5%	-2.7%	?	-2%	5%
c1cc2c3c(cccc3c1)C(N1CCCCC1)=N2	-14%	-21%	1%	-1%	-0.7%	-27%	27%	-85%
Cc1cccc(C(CC(=O)O)n2cccc2)c1 (stereo not given)	-3%	6%	9%	0%	1.5%	12%	-2%	2%
O=C(Nc1cccc(-c2cnc3ccccc3n2)c1)c1ccccc1	-6%	46%[activator]	12%	2%	4.8%	-11%	-4%	-11%
O=c1c2ccccc2ncn1CCOCCOc1cccc(Br)c1	-3%	-12%	20%	-11%	-2.1%	-1%	2%	-1%
Cc1cc(C)c(NC(=O)CSc2ncc(S(=O)(=O)c3ccc(C(C)(C)C)cc3)c(=O)[nH]2)c(C)c1	?	-26%	.	.	-0.1%	12%[46.1 µM]	.	.
CCc1nc(-c2cc(S(=O)(=O)N3CCN(c4ccccc4)CC3)ccc2OC)no1	1%	-16%	.	21%[46.1 µM]	-1.4%	22%[46.1 µM]	.	.
O=C(NCc1ccco1)/C(=C\C=C\c1ccccc1)NC(=O)c1ccccc1Br	.	11%	-5%	-19%	.	-5%[46.1 µM]	4%	-4%
COc1cccc(CNC(=O)CN2C(=O)COc3ccc(S(=O)(=O)N4CCCCC4)cc32)c1	6%	-1%&11%	.	-5%&-1%[46.1 µM]	-0.9%	-2%&-2%[46.1 µM]	4%	2%
Cc1ccc(C)c(SCC(=O)OC/C(O)=C(\C#N)c2nc3ccccc3[nH]2)c1	.	-17%	0%	-26%[46.1 µM]	.	?	-3%	5%
Continuation:
SMILES	Cruzain noTriton	2A StopGo	SARS PLpro yeast	Lassa entry inh	Cruzain inh Det	MARV entry inh	RE007 growth inh	NS1 function inh
COC(=O)C1C(=O)C2=C(CC1C)Nc1ccccc1NC2c1ccc(C)s1 (stereo not given)	.	-2%	0%	-1%[46.1 µM]	.	1%[46.1 µM]	-2%	4%
CCC(=O)Nc1cccc(-c2cnc3ccccc3n2)c1	2%	27%	-1%	?	-2.5%	?	-22%	-23%
O=C(c1ccccc1[N+](=O)[O-])N1CC2C3C=CC(C3)C2C1 (stereo not given)	.	3%	5%	1%[46.1 µM]	.	-7%[46.1 µM]	0%	.
Brc1ccc(-c2noc(CCc3ccccc3)n2)cc1	.	44%[activator]	.	28%	.	?	5%	.

High-throughput results as filed in PubChem.
